Source: PubChem BioAssay (Broad Institute)
ID4 binder: binders of human ID4 protein, primary screen, biochemical, small molecule microarray, single point. DNA-binding protein inhibitor ID-4 (Homo sapiens), P47928. Flag-ID4 binding, fluorescence F/B. calls only. actives 1.2% (n = 31,000);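 active = spot signal over background at p below 0.07 in all four prints; compounds were printed on slides so no solution concentration is given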;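 note: a binder raises fluorescence above local background on the spot; about 2 pmol printed per array spot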
Target sequence (P47928 whole entry, looked up): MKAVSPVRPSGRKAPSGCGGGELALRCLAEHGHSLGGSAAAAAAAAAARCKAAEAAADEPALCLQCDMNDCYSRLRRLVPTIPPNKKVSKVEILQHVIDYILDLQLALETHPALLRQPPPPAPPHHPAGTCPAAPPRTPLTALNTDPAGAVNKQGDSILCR
STAT3 SMM: STAT3 binders, primary screen, biochemical, small molecule microarray, single point, set 2; actives 0.2% (n = 17,000); His-STAT3 binding, anti-His fluorescence; AID 624138, 2012; calls only; Signal transducer and activator of transcription 3 (Homo sapiens), P40763;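 active = compounds whose four printed spots each show fluorescence over background unusually high for their array block, chance value under 7%; compounds were printed on slides so no solution concentration is given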;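 note: about 2 pmol printed per array spot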
Target sequence (P40763 whole entry, looked up): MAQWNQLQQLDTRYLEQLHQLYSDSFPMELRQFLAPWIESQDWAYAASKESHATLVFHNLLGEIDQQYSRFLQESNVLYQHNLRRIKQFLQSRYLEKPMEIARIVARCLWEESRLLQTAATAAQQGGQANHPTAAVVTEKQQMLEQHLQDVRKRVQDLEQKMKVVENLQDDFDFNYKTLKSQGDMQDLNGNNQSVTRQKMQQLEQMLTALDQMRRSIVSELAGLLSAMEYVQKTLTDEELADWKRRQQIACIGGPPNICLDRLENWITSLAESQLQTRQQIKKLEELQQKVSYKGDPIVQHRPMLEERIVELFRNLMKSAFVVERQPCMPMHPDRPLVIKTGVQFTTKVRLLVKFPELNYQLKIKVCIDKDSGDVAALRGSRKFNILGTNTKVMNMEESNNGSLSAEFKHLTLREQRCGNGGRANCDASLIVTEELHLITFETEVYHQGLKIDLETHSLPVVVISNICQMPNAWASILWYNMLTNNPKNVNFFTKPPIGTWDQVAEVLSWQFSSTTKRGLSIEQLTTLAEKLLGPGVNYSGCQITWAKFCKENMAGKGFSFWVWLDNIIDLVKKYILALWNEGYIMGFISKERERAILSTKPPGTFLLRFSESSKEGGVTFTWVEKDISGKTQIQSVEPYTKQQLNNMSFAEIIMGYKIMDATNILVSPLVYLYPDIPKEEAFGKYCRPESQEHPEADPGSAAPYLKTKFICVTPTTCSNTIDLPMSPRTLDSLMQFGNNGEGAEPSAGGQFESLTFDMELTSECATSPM
c-Myc SMM: binders of human c-Myc, primary screen, biochemical, small molecule microarray, anti-His fluorescence; Myc proto-oncogene protein (Homo sapiens), P01106; His-c-Myc binding; calls only; actives 1.5% (n = 17,000);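 active = spot fluorescence over background with P-value below 7% in all four replicate spots, showing protein binding; compounds were printed on slides so no solution concentration is given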;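 note: score is binary with 100 for all four spots passing and 0 otherwise; about 2 pmol printed per array spot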
mut p53 SMM: binders of human mutant p53, primary screen, biochemical, small molecule microarray, anti-GST fluorescence | mutant tumor protein p53 (GST-tagged), Homo sapiens | calls only | small molecule microarray binding | actives 0.4% (n = 17,000);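 active = compounds whose four printed spots each glow above background more than chance allows, each with a p-value under 7%; compounds were printed on slides so no solution concentration is given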;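 note: about 2 pmol printed per array spot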
Calls only; i = inactive; nt = not tested or not shown; + = active, no number. Not all compounds are listed; rates above refer to the full screens.

compound,STAT3 SMM,ID4 binder,mut p53 SMM,c-Myc SMM
CC(C)NC(=O)Nc1ccc2c(c1)C(=O)N([C@H](C)CO)C[C@H](C)[C@@H](CN(C)S(=O)(=O)c1ccc(F)cc1)OCCCC[C@@H](C)O2,i,nt,i,i
c1ncc(CCCC2CCNCC2)[nH]1,i,i,i,i
CO[C@H]1/C=C\O[C@@]2(C)Oc3c(C)c(O)c4c(O)c(c(/C=N\N5CCN(C)CC5)c(O)c4c3C2=O)NC(=O)/C(C)=C\C=C/C(C)[C@H](O)[C@@H](C)[C@@H](O)[C@@H](C)[C@@H](OC(C)=O)[C@@H]1C (stereo partly drawn),i,nt,i,i
COc1ccc(S(=O)(=O)N(C)C[C@@H]2Oc3ccc(NS(=O)(=O)c4cccs4)cc3C(=O)N([C@H](C)CO)C[C@H]2C)cc1,i,i,i,i
C[C@@H]1CN([C@H](C)CO)C(=O)c2cc(NC(=O)CCC(F)(F)F)ccc2O[C@@H](C)CCCCO[C@@H]1CN(C)S(=O)(=O)c1ccccc1,i,i,i,i
CC(C)NC(=O)N(C)C[C@@H]1Oc2c(NC(=O)Nc3cccc4ccccc34)cccc2C(=O)N([C@H](C)CO)C[C@@H]1C,i,nt,i,i
COc1ccccc1C1(O)CCN(CCCn2c3ccccc3c3ccccc32)CC1,i,i,i,i
O=S(=O)(N[C@@H]1CCCN(Cc2ccc(OCCO)cc2)C1)c1cc(C(F)(F)F)ccc1Cl,i,i,i,i
CN(CCCC(=O)O)c1nc(-c2ccc(F)cc2)cs1,i,i,i,i
Cc1ccc(-c2nc3ncccc3o2)cc1NC(=O)COc1cc(C)c(Cl)c(C)c1,i,i,i,i
CCOC(=O)/C=C/c1ccccc1OC,i,i,i,i
Cc1nn(Cc2cccc(C(=O)Nc3ccc(S(=O)(=O)N4CCCCC4)cc3)c2)c(C)c1Cl,i,i,i,i
C[C@@H]1C[C@H]2OC[C@@]3(C)CCC[C@](C)(C23)[C@@]1(O)CCc1ccoc1 (stereo partly drawn),i,nt,i,i
C[C@H]1CN([C@@H](C)CO)C(=O)c2cc(NS(=O)(=O)c3ccc(F)cc3)ccc2O[C@H]1CN(C)S(=O)(=O)c1ccc(F)cc1,i,nt,i,i
O=C(O)CCCC(=O)Nc1cccc(Cl)c1,i,i,i,i
Cc1cccc(C)c1OCC(=O)NCc1ccccn1,i,i,i,i
N=C1C(c2nc3ccccc3s2)=C(O)CN1CCCN1CCOCC1,i,i,i,i
C[C@H]1CN([C@@H](C)CO)C(=O)c2cccc(N(C)C)c2O[C@@H]1CN(C)C(=O)NC1CCCCC1,i,i,i,i
CC(C)NC(=O)Nc1ccc2c(c1)C(=O)N([C@@H](C)CO)C[C@@H](C)[C@H](CN(C)C)OCCCC[C@H](C)O2,i,i,i,i
C[C@@H]1CN([C@@H](C)CO)C(=O)c2cc(NC(=O)Nc3ccc4c(c3)OCO4)ccc2O[C@@H]1CN(C)C,i,i,i,i
CNC[C@@H]1OCCCC[C@@H](C)Oc2ccc(N(C)C)cc2C(=O)N([C@H](C)CO)C[C@@H]1C,i,i,i,i
CNC[C@H]1Oc2ccc(NC(=O)Nc3cccc4ccccc34)cc2CC(=O)N([C@H](C)CO)C[C@@H]1C,i,i,i,i
C/C=C1/[C@H](O[C@@H]2O[C@H](CO)[C@@H](O)[C@H](O)[C@H]2O)OC=C2C(=O)O[C@@H]3C[C@@H](C(C)CO)[C@H](COC(=O)C[C@H]21)[C@H]3C (stereo partly drawn),i,i,i,i
C[C@@H]1CN([C@@H](C)CO)C(=O)c2cc(NC(=O)C3CC3)ccc2O[C@H]1CN(C)C(=O)Nc1ccccc1,i,i,i,i
Cc1ccc(S(=O)(=O)N(C)C[C@@H]2Oc3ccc(NS(C)(=O)=O)cc3C(=O)N([C@@H](C)CO)C[C@@H]2C)cc1,i,i,i,i
S=C(NCCCc1cnc[nH]1)NCCCN(Cc1ccc(Cl)c(Cl)c1)c1ccc(Br)cn1,i,i,i,i
Cc1nc2c(c(=O)[nH]1)CSCC2,i,i,i,i
COc1ccc(-c2csc3ncnc(SCc4c(C)noc4C)c23)cc1,i,i,i,i
C[C@H]1CN([C@@H](C)CO)C(=O)c2cccc(NC(=O)c3nc4ccccc4s3)c2O[C@H]1CN(C)C(=O)Nc1ccccc1,i,i,i,i
NC(=O)CSc1nc2ccc([N+](=O)[O-])cc2[nH]1,i,i,i,i

A second format for 4 compounds above:
Order of results: STAT3 SMM | ID4 binder | mut p53 SMM | c-Myc SMM
C/C=C1/[C@H](O[C@@H]2O[C@H](CO)[C@@H](O)[C@H](O)[C@H]2O)OC=C2C(=O)O[C@@H]3C[C@@H](C(C)CO)[C@H](COC(=O)C[C@H]21)[C@H]3C (stereo partly drawn)
 : i | i | i | i
C[C@@H]1CN([C@@H](C)CO)C(=O)c2cc(NC(=O)C3CC3)ccc2O[C@H]1CN(C)C(=O)Nc1ccccc1
 : i | i | i | i
Cc1ccc(S(=O)(=O)N(C)C[C@@H]2Oc3ccc(NS(C)(=O)=O)cc3C(=O)N([C@@H](C)CO)C[C@@H]2C)cc1
 : i | i | i | i
S=C(NCCCc1cnc[nH]1)NCCCN(Cc1ccc(Cl)c(Cl)c1)c1ccc(Br)cn1
 : i | i | i | i

(further entries)
compound,STAT3 SMM,ID4 binder,mut p53 SMM,c-Myc SMM
Cc1noc(C)c1S(=O)(=O)Nc1ccc2c(c1)CC(=O)N([C@H](C)CO)C[C@H](C)[C@@H](CN(C)C(=O)NC(C)C)O2,i,i,i,i
CC(C)(O)/C=C/C1=CC(O)C(C)(O)CC1O (stereo not drawn),i,i,i,i
COc1cc(O[C@@H]2O[C@H](CO[C@H]3OC[C@](O)(COC(=O)c4ccc(O)c(OC)c4)[C@H]3O)[C@@H](O)[C@H](O)[C@H]2O)ccc1O,i,i,i,i
Cc1ccc(-n2c(SCC(=O)NC3CCCCC3)nnc2-c2ccccc2)cc1,i,i,i,i
C[C@H]1CN([C@@H](C)CO)C(=O)c2cc(NS(=O)(=O)c3cn(C)cn3)ccc2O[C@H]1CN(C)C(=O)Nc1ccc(F)cc1,i,i,i,i
C[C@H]1CN([C@@H](C)CO)C(=O)c2cc(NC(=O)CCCN(C)C)ccc2O[C@H]1CN(C)C(=O)Nc1ccccc1,i,i,i,i
COCCOC(=O)N1C(=O)[C@@]2(c3cc(C#CC4(O)CCCCCC4)ccc31)[C@H](C(N)=O)[C@H]1C(=O)O[C@H](c3ccccc3)[C@H](c3ccccc3)N1[C@@H]2c1ccccc1OCCO,i,i,i,i
C[C@@H]1CCCCO[C@@H](CN(C)Cc2ccc(C(=O)O)cc2)[C@H](C)CN([C@@H](C)CO)C(=O)c2cc(NS(=O)(=O)c3cccs3)ccc2O1,i,nt,i,i
Cc1noc(C)c1S(=O)(=O)Nc1ccc2c(c1)CC(=O)N([C@@H](C)CO)C[C@H](C)[C@@H](CN(C)C(=O)Nc1ccc(F)cc1)O2,i,i,i,i
C[C@@H]1CN([C@H](C)CO)C(=O)c2cccc(NC(=O)NC3CCCCC3)c2O[C@H]1CN(C)C(=O)NC1CCCCC1,i,i,i,i
C[C@@H]1CN([C@@H](C)CO)C(=O)c2cc(NS(C)(=O)=O)ccc2O[C@@H](C)CCCCO[C@@H]1CN(C)Cc1ccncc1,i,i,i,i
COC(=O)C1=C(C)NC(=O)C1(Nc1ccc(Cl)cn1)C(F)(F)F (stereo not drawn),i,i,i,i
C[C@@H]1CN([C@H](C)CO)C(=O)CCCn2cc(nn2)CO[C@H]1CN(C)S(=O)(=O)c1ccc(Oc2ccccc2)nc1,i,i,i,i
CNC[C@@H]1Oc2c(NS(=O)(=O)c3c(C)noc3C)cccc2C(=O)N([C@H](C)CO)C[C@@H]1C,i,i,i,i
C[C@@H]1CCCCO[C@@H](CN(C)C(=O)c2ccccc2)[C@@H](C)CN([C@H](C)CO)C(=O)c2cc(NC(=O)Nc3cccc4ccccc34)ccc2O1,i,nt,+,+
CC(=O)/C=C/C1(O)C(C)CCC2C(C)(C)CCCC21C (stereo not drawn),i,i,i,i
C[C@H](CO)N1C[C@H](C)[C@H](CN(C)Cc2ccncc2)Oc2ncc(C#CC(C)(C)O)cc2C1=O,i,i,i,i
Cc1nonc1OCCNc1ccc(C(F)(F)F)cc1[N+](=O)[O-],i,i,i,i
CN(CCOc1ccc(CC(Nc2ccccc2C(=O)c2ccccc2)C(=O)O)cc1)c1ccccn1 (stereo not drawn),i,i,i,i
COc1ccc(NC(=O)CSc2nnc(-c3ccccc3)c(-c3ccccc3)n2)cc1,i,i,i,i
O=C(O)c1ccccc1Nc1cccc(OCc2ccc3ccccc3n2)c1,i,i,i,i
C[C@@H]1CN([C@@H](C)CO)C(=O)Cc2cc(NC(=O)c3ccncc3)ccc2O[C@@H]1CN(C)C(=O)NC1CCCCC1,i,i,i,i
Cc1noc(C)c1NC(=O)Nc1ccc2c(c1)CC(=O)N([C@@H](C)CO)C[C@@H](C)[C@H](CN(C)C(=O)NC(C)C)O2,i,i,i,i
COC(=O)C1=C(C)Nc2nnnn2C1c1ccco1 (stereo not drawn),i,i,i,i
CC(C)NC(=O)N(C)C[C@H]1OCCCC[C@H](C)Oc2ccc(NC(=O)Cc3ccccc3)cc2C(=O)N([C@H](C)CO)C[C@H]1C,i,i,i,i
O=S(=O)(NC1CCN(Cc2ccc(OCCO)cc2)CC1)c1ccc(-c2ccccc2)cc1,i,nt,i,i
CC(C)NC(=O)N(C)C[C@@H]1OCc2cn(nn2)CCCC(=O)N([C@H](C)CO)C[C@@H]1C,i,i,i,i
COc1ccccc1NC(=O)CNC(=O)c1ccccc1F,i,i,i,i
Cc1noc(C)c1NC(=O)Nc1ccc2c(c1)CC(=O)N([C@H](C)CO)C[C@@H](C)[C@@H](CN(C)C)O2,i,i,i,i
COC(=O)c1c(NC(=S)NC(=O)CN2C(=O)c3ccccc3C2=O)sc2c1CCCC2,i,i,i,i
CNC[C@@H]1Oc2ccc(NC(=O)C3CC3)cc2C(=O)N([C@@H](C)CO)C[C@H]1C,i,i,i,i
C=CCNC(=O)[C@@H]1[C@H]2C(=O)O[C@H](c3ccccc3)[C@H](c3ccccc3)N2[C@H](c2ccccc2OCCO)[C@@]12C(=O)Nc1ccc(C#Cc3ccc(OC)cc3)cc12,i,i,i,i
C[C@@H]1CN([C@@H](C)CO)C(=O)c2cc(NC(=O)Nc3ccccc3)ccc2O[C@H]1CN(C)Cc1ccncc1,i,i,i,i
C[C@@H]1CN([C@@H](C)CO)C(=O)Cc2cc(NC(=O)Cc3cn(C)c4ccccc34)ccc2O[C@H]1CN(C)Cc1ccncc1,i,i,i,i
C[C@@H]1CN([C@@H](C)CO)C(=O)c2cc(NC(=O)c3ccncc3)ccc2O[C@@H]1CN(C)C,i,i,i,i
CC(C)(C)[C@H]1C=C(C(=O)NC2CC2)O[C@@H](OCc2ccc(CO)cc2)C1,i,i,i,i
Cn1cc(C(c2ccccn2)c2cn(C)c3ccccc23)c2ccccc21,i,i,i,i
COc1cc([C@H]2OC[C@](O)(Cc3ccc(O[C@@H]4O[C@H](CO)[C@@H](O)[C@H](O)[C@H]4O)c(OC)c3)[C@@H]2CO)ccc1O,i,nt,i,i
COc1ccc(CN(C)C[C@H]2Oc3ccc(NC(=O)Cc4ccccc4)cc3CC(=O)N([C@@H](C)CO)C[C@@H]2C)cc1,i,i,i,i
C[C@@H]1CN([C@H](C)CO)C(=O)Cc2cc(NC(=O)Cc3cn(C)c4ccccc34)ccc2O[C@@H]1CN(C)S(=O)(=O)c1cccs1,i,i,i,i
CNC[C@H]1Oc2ccc(NC(=O)CCC(F)(F)F)cc2C(=O)N([C@H](C)CO)C[C@@H]1C,i,i,i,i
C[C@@H]1CN([C@@H](C)CO)C(=O)c2cc(NS(=O)(=O)c3cccs3)ccc2O[C@@H](C)CCCCO[C@@H]1CN(C)C(=O)c1ccncc1,i,i,i,i
C[C@@H]1CN([C@H](C)CO)C(=O)c2cccc(NC(=O)c3nc4ccccc4s3)c2O[C@@H]1CN(C)C(=O)NC1CCCCC1,i,i,i,i
C[C@H](CO)N1C[C@H](C)[C@H](CN(C)C(=O)Nc2ccc(F)cc2)Oc2c(NS(=O)(=O)c3ccc(Cl)cc3)cccc2C1=O,i,i,i,i
COc1ccc(CN(C)C[C@H]2Oc3c(NC(=O)NC4CCCCC4)cccc3C(=O)N([C@@H](C)CO)C[C@H]2C)cc1,i,i,i,i
Cc1noc(C)c1NC(=O)N(C)C[C@H]1OCCCC[C@H](C)Oc2ccc(NS(C)(=O)=O)cc2C(=O)N([C@@H](C)CO)C[C@H]1C,i,i,i,i
C[C@@H]1CCCCO[C@@H](CN(C)C(=O)CCCN(C)C)[C@@H](C)CN([C@H](C)CO)C(=O)c2cc(NC(=O)NC3CCCCC3)ccc2O1,i,nt,i,i
